HCMV UL50-53 inh = inhibitors of HCMV UL50-UL53 interaction, biochemical, HTRF | normalized percent inhibition | HCMV UL50-UL53 nuclear egress complex (human cytomegalovirus) | AID 1918969, 2023 | inhibition, % (concentration not given with the values) | hit rate 0.15% among 190,000;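 active means both replicates at 50% or more, plus weaker picks with an unusually low signal ratio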;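 further: stock transfer was 100 nL into about 20 µL; 0% = negative control wells and 100% = wells with untagged competitor protein; inactives centre near -12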
Sa growth 42C = S. aureus growth inhibition at 42 and 30 °C, primary screen, LtaS inhibitor project, RN4220, two temperatures; OD600, 20 h, 42 °C; stronger effect = lower value; relative growth, % (concentration not given with the values); hit rate 0.53% among 170,000;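 active means growth at 42 °C up to 50% and 20 or more points under that at 30 °C, or under 10% at both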;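 further: 300 nL library stock went into each well; scaled to the means of positive and negative controls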
GIV Gai3 FP = inhibitors of GIV peptide binding to Galpha-i3, primary screen, biochemical, fluorescence polarization, FITC-GIV GBA peptide, rat Galphai3; Guanine nucleotide-binding protein G(i) subunit alpha-3 (Rattus norvegicus), P08753; 90 min; stronger effect = lower value; scaled: aluminum fluoride 0%, vehicle 100%; percent of control (FP), % (no concentration beside the values); hit rate 0.42% among 210,000;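 active means replicate mean at 85% of control or lower, very high polarization wells dropped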;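 further: wells of about 15 µL received 100 nL stock; the first replicate is given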
Target sequence (P08753 whole entry, looked up): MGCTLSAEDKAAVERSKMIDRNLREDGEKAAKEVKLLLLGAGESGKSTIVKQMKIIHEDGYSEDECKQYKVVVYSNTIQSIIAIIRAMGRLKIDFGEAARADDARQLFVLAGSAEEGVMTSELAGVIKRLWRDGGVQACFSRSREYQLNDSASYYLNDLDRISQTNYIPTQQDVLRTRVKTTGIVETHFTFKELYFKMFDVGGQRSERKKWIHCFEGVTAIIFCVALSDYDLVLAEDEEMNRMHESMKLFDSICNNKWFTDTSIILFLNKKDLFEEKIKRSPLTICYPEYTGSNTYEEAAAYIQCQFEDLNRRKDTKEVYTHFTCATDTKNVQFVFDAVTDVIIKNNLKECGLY
Sa growth 42C second temp = further read-out of Sa growth 42C, marked with its call; relative growth, %; measured here: growth at 30 °C;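 optical density after 20 h as mean of two plates; 100% = untreated growth and lower means inhibition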
The depositor's hits bear a star; · = no result given; & = joins results of further samples.

SMILES	HCMV UL50-53 inh	Sa growth 42C	Sa growth 42C second temp	GIV Gai3 FP
COc1ccc2oc(=O)cc(CN(C)CCC#N)c2c1	-28	85	87	104
O=C(CSC(=O)c1ccccc1)NC1CCCCC1	3	111	97	·
CCN(CC)S(=O)(=O)c1ccc(NC(=O)c2noc3c2COc2ccccc2-3)cc1	·	84	90	101
Cc1ccc2oc(=O)c3cc(C(=O)N4CCN(c5ccccn5)CC4)sc3c2c1	-17	·	·	97
CCOC(=O)c1ccccc1NC(=O)N(Cc1ccc(C)cc1)Cc1cccn1-c1nnc(N2CCCC2=O)s1	15	104	97	100
CC(=O)N1N=C(c2ccc3c(c2)OCO3)OC1c1cc(-c2ccccc2)nc2ccccc12 (configuration not stated)	-27	·	·	104
O=C(O)c1ccccc1C(=O)N1CCN(c2ccncc2)CC1	-26	90	87	97
Cc1cc(C)c2[nH]c(=O)c(CN(Cc3ccco3)C(=S)NCCCN3CCOCC3)cc2c1	-14	117	72	105
CCOC(=O)c1cnc2c(Cl)cc(Cl)cc2c1Nc1cc(C(=O)O)ccc1C	-31	110	88	104
O=C1COc2ccc(S(=O)(=O)N3CCN(C(=O)COc4ccc(Cl)cc4)CC3)cc2N1	-28	·	·	108
O=C(CCCSc1nnc(-c2ccc3c(c2)OCO3)o1)c1cccs1	2	76	92	·
O=C(NCc1ccc(Cl)cc1)C(=O)Nc1cccc(Br)c1	11	98	107	104
Cc1noc(C)c1S(=O)(=O)N(CCC#N)Cc1ccccc1	-22	105	81	102
O=C(c1ccc(CNS(=O)(=O)c2ccc(Br)cc2)cc1)N1CCCC1	·	105	76	104
CCCOC(=O)c1cccc(NC(=O)CSc2nnc3cc(C)c4ccccc4n23)c1	-10	83	93	108
Cc1ccc(Cn2c3ccccc3c3cnn(CC(=O)Nc4cc(Cl)ccc4C)c(=O)c32)cc1	-11&-14	111	96	102&105
O=C(Nc1c2c(nn1-c1ccc([N+](=O)[O-])cc1)CSC2)c1ccc(C(=O)c2ccccc2)cc1	-2	·	·	107
NCc1ccc(CN2CCCC2)cc1	-8	103	104	104
CCOC(=O)c1cnc(SCC(=O)Nc2c(C)cccc2C)nc1N	2	·	·	107
CCSc1nc(C(=O)O)cc(=O)[nH]1	4	100	99	110
CCc1c(C(=O)OC)nnn1-c1nonc1N	-12	90	84	·
O=C(CCn1c(=S)[nH]c2cc3c(cc2c1=O)OCO3)NC1CCCC1	·	109	94	97
O=C(Nc1ccc(OC(F)(F)F)cc1)OC1CN(C(c2ccccc2)c2ccccc2)C1	-17	51	74	106
C[N+](C)(CCOc1ccccc1)Cc1ccccc1	-69&-30	92	81	·
CC1Oc2ccccc2C=C1/C=C(\C#N)C(=O)NC1CCS(=O)(=O)C1 (configuration not stated)	-77	93	82	152

In a second layout: three of the compounds above.
> COc1ccc2oc(=O)cc(CN(C)CCC#N)c2c1
- HCMV UL50-53 inh: -28
- Sa growth 42C: 85
- Sa growth 42C second temp: 87
- GIV Gai3 FP: 104
> Cc1noc(C)c1S(=O)(=O)N(CCC#N)Cc1ccccc1
- HCMV UL50-53 inh: -22
- Sa growth 42C: 105
- Sa growth 42C second temp: 81
- GIV Gai3 FP: 102
> CCSc1nc(C(=O)O)cc(=O)[nH]1
- HCMV UL50-53 inh: 4
- Sa growth 42C: 100
- Sa growth 42C second temp: 99
- GIV Gai3 FP: 110

Next part.
SMILES	HCMV UL50-53 inh	Sa growth 42C	Sa growth 42C second temp	GIV Gai3 FP
O=C1CC(c2ccccc2)Oc2ccc(F)cc21 (configuration not stated)	3	76	70	110
COc1ccc(-n2c(-c3ccc(C)cc3)cc3c2CC(C)(C)CC3=O)c(OC)c1	-19	129	89	94
O=C(O)c1ccc(CSc2nnc(-c3ccncc3)n2CC2CCCO2)cc1 (configuration not stated)	-2	121	97	104
Clc1ccc(-c2nnc(C(c3ccccc3)N3CCN(Cc4ccccc4)CC3)o2)cc1 (configuration not stated)	-19	·	·	105
Cc1noc(C)c1C(=O)OCC(=O)C12CC3CC(CC(C3)C1)C2	-9	89	91	·
CC12CN(NC=O)C3(C#N)CC1CCC23C (configuration not stated)	13	98	99	106
c1ccc(CCN2CN=C(Nc3nc4ccccc4s3)NC2)cc1	2	100	98	107
COc1cc(Cl)c(C)cc1NS(=O)(=O)c1c(C)nc2sccn2c1=O	·	95	83	109
CCCOC(=O)c1cccc(NC(=O)OCC)c1	-20	89	69	103
Nc1nonc1-n1nnc(C(=O)O)c1-c1cccc2ccccc12	-39	97	93	98
COc1cc(OC)c(NC(=O)CSc2cc(=O)n(C)c3ccc(Cl)cc23)cc1Cl	-24	107	90	101
CCc1c(C)nc2ncnn2c1NCc1cccc(OC)c1	-30	·	·	103
CCCc1cc(=O)oc2cc(OC(=O)/C=C/c3cccs3)ccc12	-12	82	89	102
Fc1ccccc1OCc1nc(-c2ccc(-n3cccc3)cc2)no1	-7	110	98	105
COC(=O)c1ccc2c(c1)n(CCO)c(C)[n+]2CCO	-2	112	96	100
Cc1[nH]c2ccccc2c1C(=O)COC(=O)c1ccc2c(=O)n3c(nc2c1)CCC3	-12	88	80	·
O=S(=O)(c1ccc2ccccc2c1)N1CCCc2ccccc21	·	98	87	100
Cc1cc(O)cc(=O)n1C	-33	92	92	102
Cc1ccc(C)c(OCc2nc(C)c(C(=O)Nc3nnc(C(C)C)s3)s2)c1	16	·	·	106
Cc1noc(C)c1CC(=O)OCc1ccc(C#N)cc1	21	120	98	·
COc1ccccc1N1CCN(C(=O)CCc2nnc3n(Cc4ccccc4)c(=O)c4ccccc4n23)CC1	-3	·	·	104
CCc1c(C)[nH]n(CCC#N)c1=O	-17	118	81	99
Cc1cccc(NS(=O)(=O)c2c(C)noc2C)c1	·	107	96	122
CCN1CCN(C2CC(=O)N(CC)C2=O)CC1 (configuration not stated)	-26	105	102	101
Cc1ccc(-n2c(C)cc(C(=O)CN3CCC(C)CC3)c2C)cc1	-27	91	75	101

Ordered by value in GIV Gai3 FP (falling): three from the list above
| compound | Sa growth 42C second temp | GIV Gai3 FP |
| --- | --- | --- |
| c1ccc(CCN2CN=C(Nc3nc4ccccc4s3)NC2)cc1 | 98 | 107 |
| COc1cc(OC)c(NC(=O)CSc2cc(=O)n(C)c3ccc(Cl)cc23)cc1Cl | 90 | 101 |
| COC(=O)c1ccc2c(c1)n(CCO)c(C)[n+]2CCO | 96 | 100 |

Following part.
SMILES	HCMV UL50-53 inh	Sa growth 42C	Sa growth 42C second temp	GIV Gai3 FP
NNC(=O)Cn1c2ccccc2c2ccccc21	-41	92	91	106
O=c1[nH]c2ccccc2nc1/C=C(\O)c1ccccc1	-19&-17	123&91	92&75	101
Cc1ccc(NC(=O)Cn2c(Cc3ccccc3)nc3sc4c(c3c2=O)CCCC4)cc1Cl	-20	·	·	100
CCc1ccc(NC(=O)c2noc3c2CCc2ccccc2-3)cc1	-37	88	81	98
COC(=O)c1cc(NS(=O)(=O)c2cc(Br)cc3c2N(C(C)=O)CC3)cc(C(=O)OC)c1	·	108	92	107
CCN(CC)CCNc1cc(C)nc2c(-c3ccccc3Cl)c(C(F)(F)F)nn12	-9	·	·	105
O=C(Cn1c(=O)ccc2cc(S(=O)(=O)N3CCCC3)ccc21)NCc1ccc(F)cc1	·	101	86	99
Cc1ccc(C2=NN(CC(=O)NCCC(C)C)C(=O)CC2)cc1	·	98	96	100
O=C(c1cc2n(n1)CCCN(Cc1ccc(F)cc1)C2=O)N1CCC(N2CCCCC2)CC1	-26	·	·	104
CC1(C)Nc2ccccc2C(=O)N1NS(=O)(=O)c1ccccc1	·	114	94	105
O=C1OCCC1Sc1nnc(-c2cccs2)n1-c1ccccc1 (configuration not stated)	7	90	93	·
O=C(CSc1ncn(-c2ccccc2)n1)NC1CCCCC1	0	94	65	105
O=C(NCCCO)c1ccncc1	-18	93	82	101
N#C/C(=C\NCc1ccccn1)S(=O)(=O)c1ccc(Cl)cc1	-14	98	94	100
COc1ccc(-c2nc3c(s2)CN(C(=O)c2ccc(C)cc2)CC3)cc1	-14	·	·	96
CN(C)C(=O)C[n+]1ccc(/C=N/O)cc1	·	77	86	101
CCc1ccc(NC(=O)CSc2nc(=O)n(Cc3ccco3)c3c2CCC3)cc1	·	102	58	104
CC1CN(C(=O)/C=C/c2ccc3c(c2)OCO3)CC(C)O1 (configuration not stated)	-35	110	93	104
CC1=C(C(=O)Nc2cccc(C)n2)C(c2ccsc2)C2=C(CCCC2=O)N1 (configuration not stated)	·	78	74	105
Cc1ccc(C)c(NC(=O)OC(C)(C)C)c1	-11	105	102	107
CCn1c(=O)n(Cc2ccco2)c(=O)c2sc3ccccc3c21	-21	107	83	104
Cn1cnnc1SCc1ccc(C(=O)N/N=C2\CCCc3ccccc32)cc1	-13	90	95	·
CN1C(=O)Cc2cc(NC(=O)C3CCCCC3)ccc21	-28	·	·	103
Cc1ccc(-n2nnnc2SCC(=O)c2ccccc2)c(C)c1	-14	109	82	104
CCOc1ccc2oc(C)c(C(=O)Nc3ccccc3Cl)c2c1	-4	·	·	103

Retrieved by structure from above:
SMILES	HCMV UL50-53 inh	Sa growth 42C	Sa growth 42C second temp	GIV Gai3 FP
CN1C(=O)Cc2cc(NC(=O)C3CCCCC3)ccc21	-28	·	·	103
CC1(C)Nc2ccccc2C(=O)N1NS(=O)(=O)c1ccccc1	·	114	94	105
NNC(=O)Cn1c2ccccc2c2ccccc21	-41	92	91	106
CCOc1ccc2oc(C)c(C(=O)Nc3ccccc3Cl)c2c1	-4	·	·	103

(cont.)
SMILES	HCMV UL50-53 inh	Sa growth 42C	Sa growth 42C second temp	GIV Gai3 FP
COC(=O)Cc1nc(N2CCN(c3ccc(F)cc3)CC2)c2c(C)c(C)sc2n1	-3	·	·	104
CN(C(=O)Cn1nnc(-c2ccc(S(C)(=O)=O)cc2)n1)c1ccccc1	9	103	92	99
CC1=CC(C)(C)CC(=S)N1c1cccc(F)c1	-15	83	29	·
O=C(CSc1nnc2c3c4c(sc3ncn12)CCCC4)Nc1nccs1	-20	92	67	102
CCN(C(=O)c1cc2cccc(OC)c2oc1=O)C1CCCCC1	-34	94	79	93
Clc1nc2sccn2c1/C=N/n1cnc2ccccc21	-11	92	88	·
O=C(C1CCC1)N1CCC2(CC1)Nc1cc(F)ccc1-n1cccc12	-7	·	·	110
CC1(C)COC(c2sccc2C(=O)O)=N1	-28	92	84	102
Cc1cc(C)n2nc3nc(N4CCOCC4)nc(-c4ccc(C(C)C)cc4)c3c2n1	·	115	90	103
CC(Sc1nc2c(c(=O)[nH]1)CCCC2)C(=O)Nc1ccc(F)cc1 (configuration not stated)	-30	·	·	101
O=C(NCCCc1nc2ccccc2[nH]1)c1ccc(F)cc1	·	95	72	100
COc1ccc(OC)c(NC(=O)N2CCN(c3ccc(=O)n(-c4ccc(F)cc4)n3)CC2)c1	-35	·	·	100
O=C(NCCc1ccc(Cl)cc1)c1ccc(CS(=O)(=O)Cc2ccc(Cl)cc2)o1	·	105	96	100
CC(=O)N1CCN([C@H]2CS(=O)(=O)C[C@@H]2S(=O)(=O)c2cccs2)CC1	-13	·	·	98
Cc1cc(C(=O)OCC(=O)N(C)c2ccccc2)c(C)o1	22	102	101	·
CCC1=Nc2cc(C(=O)N3CCc4ccccc43)ccc2Sc2ccccc21	·	100	87	103
CN(C)C(=O)CSc1ncnc2sc3c(c12)CCCC3	-5	88	92	·
CCCc1nnc(C(=O)Nc2cccc(C(=O)NCCc3c[nH]c4ccc(Cl)cc34)c2)s1	-11	·	·	105
COc1cccc(-c2noc(COC(=O)c3ccccc3-c3ccccc3C#N)n2)c1	-20	83	87	·
COc1cccc(-c2cc(C(=O)Nc3ccn(Cc4ccc(C)cc4)n3)no2)c1	-18	97	92	106
O=C(NC(=S)Nc1ccc2c(c1)OCO2)c1ccccc1	-2	103	94	97
CSc1ccc(CCNC(=O)CCCn2nc(C)c3sc4ccccc4c3c2=O)cc1	-21	107	88	109
CCN(CC(=O)c1c(N)n(Cc2ccccc2)c(=O)n(CC)c1=O)Cc1nc2ccccc2c(=O)[nH]1	-13	95	92	·
Cc1c(=O)n(OCc2ccccc2)c2ccccc2[n+]1[O-]	-8	·	·	105
CCCCc1c(C)c(C#N)c2[nH]c3ccccc3n2c1=O	·	97	36	98

The results go on.
SMILES	HCMV UL50-53 inh	Sa growth 42C	Sa growth 42C second temp	GIV Gai3 FP
O=c1oc2ccc3ccccc3c2cc1-c1nnc(Nc2ccccc2F)s1	-43	98	91	107
CC(Sc1nnnn1-c1ccccc1)c1nc2scc(-c3ccccc3)c2c(=O)[nH]1 (configuration not stated)	12	119	102	·
CN(Cc1ccccc1)C(=O)C1CCCN1S(=O)(=O)c1ccc2c(c1)n(C)c(=O)c(=O)n2C (configuration not stated)	·	93	97	100
CNCc1c(C)nn(Cc2ccccc2Cl)c1C	4	92	93	·
CCOc1ccc(NC(=O)C(C)C(Cc2ccc(C)cc2)C(=O)O)cc1 (configuration not stated)	·	124	93	108
CCCCOc1ccc(NC(=O)c2oc3ccc(F)cc3c2C)c2cccnc12	-15	·	·	99
Cc1sc2ncnc(NCC3CN(Cc4ccccc4)CCO3)c2c1C (configuration not stated)	-17	89	86	·
O=C(NCCc1ccccc1)C(=O)NCC(c1ccc2c(c1)OCO2)N1CCOCC1 (configuration not stated)	·	106	88	101
CCC(C)NC(=O)C1CCN(c2ncccn2)CC1 (configuration not stated)	-4	125	97	102
C/C(=C\C(=O)C(F)(F)F)NCc1ccccn1	-24	85	89	·
Cc1ccccc1CSc1nnc2[nH]c(=O)cc(C)n12	·	120	91	91

Screening results deposited in PubChem by ICCB-Longwood Screening Facility, Harvard Medical School.
